Ba CapD inh – inhibitors of Bacillus anthracis CapD enzyme; purified CapD enzyme, fluorescence intensity read-out; hits give low values; some hits fall short of the stated cut; 140,000 compounds, 0.23% hits; z-score (concentration not given with the values);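 active = z-score under -4 in either of two replicates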;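 note: stock transfer was 100 nL into about 40 µL; score is relative to mean and spread of the plate; one replicate is shown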
AID504770 – growth inhibitors of E. coli YBA685 in a screen for V. cholerae RctB (chromosome II replication) inhibitors; 130,000 compounds, 0.27% hits; z-score (concentration not given with the values); E. coli YBA685 rctB-dependent plasmid, OD600 growth, 3 h; hits give low values; AID 504770;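 active = z-score under -2 on both plates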;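 note: wells of about 30 µL received 100 nL stock; score is relative to mean and SD of the test wells; the first replicate is given; strong numbers were not always called active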
* hit, by the source's call; · = not tested or not shown; & = joins results of further samples. These rows are one share of the data, so the mix of outcomes need not match the whole.

Structure	Ba CapD inh	AID504770
COc1cc(-n2c(C)nc3cc(C(=O)NC4CCCC(C)C4C)ccc32)cc(OC)c1OC (stereo not given)	-0.115	·
Cc1c(C(=O)NC2CCS(=O)(=O)C2)oc2ccccc12 (stereo not given)	0.34	0.25
NC(=O)CSc1nnc2n(Cc3ccccc3)c(=O)c3c(n12)-c1ccccc1CC31CCCCC1	-0.685	·
COc1cc(OC)c(/C=C2\C(=O)NC(=O)N(c3cccc(C)c3)C2=O)cc1Br	0.6	·
CN1C(=O)N(C)C2NNC(N)=NC21 (stereo not given)	0.165	·
N#CC(C#N)=C1C=C(c2ccc(O)cc2)Oc2ccccc21	·	0.6
Cc1nc(N2CCC(C)CC2)c2c(C)c(C(=O)N3CCC4(CC3)OCCO4)sc2n1	0.26	·
COC(=O)c1c(NC(=O)C(C)C)sc2c1CCC2	0.115	1.1
COc1ccc(C(C)(C)C)cc1NC(=O)c1ccoc1C	0.275	-0.5
COC(=O)Cc1nc(Nc2ccccc2)sc1C	-0.56	·
CC(=N\Nc1c(Cl)cc(Cl)cc1Cl)/C(=N\O)C(=O)Nc1ccccc1	0.315	·
COc1ccc(OC)c(Nc2nc3nonc3nc2N2CCCCC2)c1	0.09	·
O=C(COC(=O)C1(c2ccccc2F)CCCC1)NCc1ccccc1	0.395	0.1
Nc1cc(C(=O)O)ccc1NCC1CCCO1 (stereo not given)	67.3	-0.7
O=C(CSc1nnc(CNC(=O)c2ccco2)n1-c1cccc(C(F)(F)F)c1)Nc1ccc(F)cc1	·	-0.5
Cc1oc(C(C)(C)C)cc1-c1cc(N)n(C)n1	-0.375	0.6
CCOc1ccc(N2C(=O)/C(=C\c3ccccc3OC)N=C2c2ccc(OC)c(OC)c2)cc1	-0.98	·
O=C(O)CCC(=O)NC1Cc2ccccc2C1	-1.08	0.35
COc1ccc(CCN=C(C)c2c(O)cc(C)oc2=O)cc1	·	-0.6
COc1ccc(/C=C2\C=C(c3ccccc3)N(c3ccc(Cl)c(Cl)c3)C2=O)cc1Br	-0.87	·
CNC(=O)c1ccccc1Sc1ccccc1COC(C)=O	0.025	1.25
O=C1c2ccccc2C(=O)N1c1cccc(-c2csc(=Nc3ccccc3)n2CCO)c1	0.095	-0.4
Cc1ccc2oc(=O)c3cc(C(=O)N4CCN(C)CC4)sc3c2c1	3.51	-0.85
Cn1nc(C(=O)N2CCOCC2)c2ccccc2c1=O	-0.245	-0.5
Cc1cc(NC(=O)CN(C)Cc2c(C)nn(-c3ccccc3)c2C)no1	·	0.1

Laid out differently: 2 of the compounds above
COC(=O)Cc1nc(Nc2ccccc2)sc1C
  Ba CapD inh = -0.56
  AID504770 = ·

CN1C(=O)N(C)C2NNC(N)=NC21 (stereo not given)
  Ba CapD inh = 0.165
  AID504770 = ·

(more compounds)
Structure	Ba CapD inh	AID504770
COc1ccc(-n2cc(-c3ccc(OC)c(OC)c3)[nH]c2=O)cc1	·	-0.4
CCOC(=O)CSc1nc2c(sc(=S)n2-c2ccccc2C)c(=O)n1-c1ccc(F)cc1	4.03	1.05
CC1C(=O)N(C)c2ccc(S(=O)(=O)N3CCOCC3)cc21 (stereo not given)	0.255	-0.4
Cc1cc(N/C(=N\S(=O)(=O)c2ccc(F)cc2F)c2ccccc2)no1	·	-1.5
Cc1ccc2n1CCNC2C(C)C (stereo not given)	·	0.55
C#CCN1CCc2cc(OC)c(OC)cc2C1C (stereo not given)	·	0.3
CCCCN=c1scc(-c2ccco2)n1/N=C/c1c[nH]c2ccccc12	·	0.4
NC(=NC(=O)CCn1c(=O)oc2ccccc21)c1cc(Cl)cc(Cl)c1	-0.16	0.5
CCOc1ccc(N/C(SCc2ccc(Cl)cc2)=C(/C#N)C(N)=O)cc1	-0.165	·
CNS(=O)(=O)c1ccc(C)c(-c2nnc3c4ccccc4c(C)nn23)c1	-0.22	0.45
CS(=O)(=O)NN1C(=O)c2ccccc2NC12CCCCC2	-0.23	0.6
COc1ccc2nc(SCC(=O)N3c4ccccc4C(C)=CC3(C)C)nc(C)c2c1	-0.33	·
CC12CC3CC(C1)CC(C(=O)O)(C3)C2	-0.65	0.75
NC(=O)c1ccc(NC(=O)C2CCCCC2)cc1	0.285	0.5
Cc1ccc2c(=O)cc(C(=O)N(Cc3ccccc3)Cc3ccco3)oc2c1	-1.48	-2.4
Clc1ncc(CN2CCc3ccccc3C2)s1	-0.245	0.15
O=C(CSc1nnc(-c2cccnc2)n1Cc1ccccc1)c1ccc(Br)cc1	0.14	·
COc1ccc(C(Cc2ccc3ccccc3n2)Oc2nc(OC)cc(OC)n2)cc1 (stereo not given)	-0.24	·
Cc1ccc(N2C(=O)C3CCC(C)(C2=O)C3(C)C)cc1C (stereo not given)	-0.21	·
Clc1ccccc1/C=N/OCc1nc2c3c(-c4ccccc4)c(-c4ccccc4)oc3ncn2n1	-0.555	·
O=C(NC1CCS(=O)(=O)C1)c1ccccc1Cl (stereo not given)	0.04	-0.05
OC(CNCc1ccccc1)Cn1c2c(c3ccccc31)CCCC2 (stereo not given)	0.41	-0.9
Cc1ccc(CNC(=O)c2cc3sccc3n2C)cc1	-0.62	1.2
COC(=O)CCn1c(=O)c2cccn2c2cccnc21	34.8	-0.7
COc1ccc(-n2c(SCC(N)=O)nc3sc4c(c3c2=O)CCCCC4)cc1	-0.2	·
CCOC(=O)C1=C(C)NC(=S)NC1c1cccc(Br)c1 (stereo not given)	-0.005	·
c1nc(N2CCCC2)c2sc3nc(N4CCOCC4)c4c(c3c2n1)CCCC4	1.1	·
Clc1cccc(CNNc2nc(N3CCCCC3)nc(N3CCCCC3)n2)c1	·	0.4
CC1=NCCN1CCNC(=O)Nc1ccc(C(C)(C)C)cc1	-1.69	-0.85
COc1ccccc1CNc1ncnc2nc[nH]c12	-0.755	-0.1
COc1ccc(C2NC(=O)c3c(sc4c3CCC4)N2)cc1 (stereo not given)	-0.115	-1.25
COc1cc2c(cc1OC)C(CC#N)N(S(=O)(=O)c1cc(C)ccc1OC)CC2 (stereo not given)	0.62	·
COc1ccccc1/C=C1\SC(=S)N(c2ccccc2)C1=O	-0.155	0.05
CC(=O)N1C(=O)/C(=c2/sc3n(c2=O)C(c2ccccc2)C(c2ccccc2)=NN=3)c2ccccc21 (stereo not given)	0.375	·
COC(=O)COc1ccc(Oc2nc(SC)nc(N(C)C)n2)nn1	-0.35	0.35
CCOc1cc2c(cc1CCC(=O)O)CCC2	·	0.4
CCN(Cc1ccncc1)C(=O)C(CO)c1ccccc1 (stereo not given)	0.23&-0.66	-0.25
CCOC(=O)c1ccc(NC(=O)c2cc(Cl)sc2Cl)cc1	-0.745	-1.4
O=C(CC(c1ccc(Cl)cc1)C1CCCCC1=O)c1ccc(Br)cc1 (stereo not given)	0.38	0.25
Cc1cc2ncn(S(=O)(=O)N3CCOCC3)c2cc1C	·	-0.45
COc1cccc(CCN2CCC(CNC(=O)Cn3c(=O)oc4ccccc43)CC2)c1	0.475	-1.2
CCOC(=O)N1CCN(C(=O)c2ccccc2NC(=O)c2cccc(C)c2)CC1	-0.245	-0.5
CNC(=O)NNc1ccc(-c2csnn2)cc1	-0.33	2.05
N#CCCn1cc(/C=C/C(=O)Oc2cccc(-n3cnnn3)c2)c2ccccc21	·	-0.55
O=C(Cn1cnc2c(nnn2Cc2ccc(F)cc2)c1=O)OCc1ccccc1	0.255	-0.4
CN(C)C(=S)SCC(=O)Nc1ccccc1O	·	1.45
O=C(Nc1nnc(C2CC2)s1)c1ccc2ncsc2c1	·	1.35
O=C1Cc2ccccc2C(c2cccc(Cl)c2)N1 (stereo not given)	0.355	-0.25
CN(c1ccc(Br)cc1)S(=O)(=O)c1ccc2[nH]cc(C(=O)NCCC3=CCCCC3)c(=O)c2c1	0.36	·
O=C(CSc1nnc(-c2ccc(C(F)(F)F)cn2)s1)c1ccccc1	-0.01	-0.45

(further entries)
Structure	Ba CapD inh	AID504770
O=C1c2ccccc2C(=O)N1CSc1nc2ccccc2s1	0.295	1.2
O=c1[nH]c2ccccc2n1C1CCN(S(=O)(=O)c2cc(Br)c(Cl)s2)CC1	0.34	·
COc1ccc(N2CC(NC(=O)N(CCO)Cc3ccccc3)CC2=O)cc1 (stereo not given)	·	0.2
O=C(NCc1ccccc1)c1ccc(=O)n(Cc2c(Cl)cccc2Cl)c1	0.585	·
O=c1c2ccccc2nc2c3ccccc3c(SCc3ccco3)nn12	·	0.05
O=C(CC12CC3CC(CC(C3)C1)C2)Nc1ccc(Cl)cc1	-0.535	·
COc1ccc(S(=O)(=O)NCC23CC4CC(CC(C4)C2)C3)cc1	0.26	-0.25
COc1ccc(C(=O)Nc2ccon2)cc1S(=O)(=O)Nc1ccccc1	-0.4	-0.2
O=C1/C(=C/c2ccco2)CC(c2ccccc2)C/C1=C\c1ccco1 (stereo not given)	0.09	0.2
Clc1ccc2c(c1)N=C(SCc1ccccc1Cl)CCS2	-0.075	·
CC1Sc2ccccc2NC(=O)C1C (stereo not given)	0.875	0.3
CN1CCN(c2ccc(NC(=O)CSc3ccccc3)cc2F)CC1	-0.445	·
CC1CCN(CN2C(=O)C3(OCC(C)(c4ccccc4)CO3)c3ccccc32)CC1 (stereo not given)	-0.56	·
CC(=O)Nc1ccc2c(C)cc(=O)[nH]c2c1	47.4	1.5
O=C(CSc1ncccn1)N(C1CCCCC1)C1CCCCC1	·	-0.15
COc1ccc(C(=O)Cc2nc3ccccc3[nH]2)cc1OC	·	-0.35
CC(Sc1nnc(-c2cccc(Br)c2)o1)C(=O)c1ccccc1 (stereo not given)	-0.34	-0.3
CCOc1cc(/C=c2\sc3nc4cc(C)c(C)cc4n3c2=O)ccc1OCC(N)=O	0.18	·
CC1=C(C(=O)OC(C)(C)C)C(c2cccc(F)c2)C(C#N)=C(N)O1 (stereo not given)	0.51	·
COc1cccc(-c2cc(C(F)(F)F)nc(-n3cccn3)n2)c1	-3.4*	-0.9
O=C(Nc1nc2ccsc2c(=O)s1)c1ccccc1	-0.12	-0.65
COc1ccccc1NC(=S)NCC(C)(C)C(=O)O	0.465	·
Nc1cc(NC(=O)c2ccccc2O)ccc1Cl	8.5	·
O=C(Oc1ccc(-c2nnco2)cc1)c1ccccc1F	·	-0.65
C=CCN1C(=O)C(CC(=O)Nc2ccccc2)SC1=Nc1ccc(O)cc1 (stereo not given)	-0.215	-0.1

Among those listed so far, these contain a COOH group:
Structure	Ba CapD inh	AID504770
Nc1cc(C(=O)O)ccc1NCC1CCCO1 (stereo not given)	67.3	-0.7
O=C(O)CCC(=O)NC1Cc2ccccc2C1	-1.08	0.35
CC12CC3CC(C1)CC(C(=O)O)(C3)C2	-0.65	0.75
CCOc1cc2c(cc1CCC(=O)O)CCC2	·	0.4
COc1ccccc1NC(=S)NCC(C)(C)C(=O)O	0.465	·

Next part:
Structure	Ba CapD inh	AID504770
COc1cc(OC)nc(-c2ccc(C(=O)NCCN3CCOCC3)cc2)n1	-0.38	·
CCCC(C)OC(=O)C1C(C)CC2(C)CC1C(=O)O2 (stereo not given)	0.76	·
C=CCOc1cccc(/C=C2/C(=O)NC(=S)N2C(C)=O)c1	0.265	-0.95
CCNC(=O)Nc1ccc2c(c1)CCN2S(C)(=O)=O	-0.645	·
C=CCn1c(SCC(=O)Nc2cccc(Cl)c2)nc2sc(CC)cc2c1=O	0.045	·
O=C(COC(=O)c1ccccc1)NC1CC1	0.41	-0.25
CC(C)N=Cc1nc(-c2ccccc2)[nH]c1Cl	-0.705	-0.3
COc1ccccc1NC(=O)CCC(=O)N1CCSc2ccccc21	-0.54	0
CC(C)(C)c1ccc(C(=O)n2cc(Br)cn2)cc1	0.07	2.3
CCOC(=O)c1c(C)n(-c2ccccc2)c2c1cc(OC(=O)c1ccccc1OC)c1ccccc12	0.12	·
Cc1c(Cl)cccc1N1C(=O)CSC12C(=O)Nc1ccccc12 (stereo not given)	0.45	·
CSCC(C(=O)O)N1C(=O)c2ccc(C(=O)O)cc2C1=O (stereo not given)	·	0.5
COc1ccc(-c2ocnc2C(=O)NCCN2CCCCCC2)cc1	·	2.25
CCC1CCCCN1C(=O)COC(=O)c1ccc(O)cc1 (stereo not given)	-0.035	0.1
Cc1ncc(CNS(=O)(=O)c2ccccc2C(F)(F)F)c(N)n1	-0.19	-1.3
Cc1cccc(OC(C)C(=O)N2CCCCC2)c1 (stereo not given)	0.075	-0.8
O=C(c1ccc(Br)cc1)c1cc2ccccc2o1	-0.15	0
CCCc1[nH]nc2c1C1(C(=O)Nc3ccc(Br)cc31)C(C(=O)OCC)=C(N)O2 (stereo not given)	0.68	·
CCc1ccc(OCC(=O)N2CCc3ccccc32)cc1	0.64	0.25
COC(=O)c1ccc(OC(=O)N2CCOCC2)cc1	·	-0.1
CCCNC(=O)Nc1nc2ccc(OC)cc2s1	0.03	0.6
CS(=O)(=O)Nc1ccc2c(c1)OCO2	·	-0.8
O=c1ccc(C(F)(F)F)cn1-c1ccc(C(F)(F)F)cn1	0.715	-1
CC1CN(CC(=O)c2c(N)n(Cc3ccccc3)c(=O)n(C)c2=O)CC(C)O1 (stereo not given)	·	0.35

Complete entries, quoted from the list. Screens in order: Ba CapD inh | AID504770
Cc1cccc(OC(C)C(=O)N2CCCCC2)c1 (stereo not given) in the list: 0.075 | -0.8
Cc1cc(NC(=O)CN(C)Cc2c(C)nn(-c3ccccc3)c2C)no1 in the list: · | 0.1

Bioassay records (PubChem)
